# Beta apoptosis: inhibitors of cytokine-induced beta cell apoptosis, primary screen, luminescence | INS-1E cytokine-induced death, ATP luminescence, 48 h; percent of positive-control rescue, neutral wells zero | protection from apoptosis, % (test concentration not listed) | 300,000 compounds, 0.8% hits | AID 435005, 2010;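 active = all replicates at 75% or more, or half of them and the mean; inconclusive = half reach 75% but not the mean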;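 also: 0% = cytokine-treated negative control wells and 100% = positive control rescue; higher means more ATP so stronger rescue from cytokine killing; wells of about 40 µL received 100 nL stock; the first replicate is given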
# Calb FLC: C. albicans growth inhibition with fluconazole, primary screen, CaCi-2 strain, Alamar Blue fluorescence | AID 1979, 2009 | 300,000 compounds, 0.57% hits | C. albicans CaCi-2 (fluconazole-resistant clinical isolate) + fluconazole, 48 h | growth inhibition, % (test concentration not listed);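 active = most replicates above 75%; inconclusive = exactly half above 75%; inactive = most below 75%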;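 also: all wells also contain fluconazole at 8 µg/ml as a sub-toxic cotreatment; 0% = median of DMSO wells and 100% = median of geldanamycin control wells; wells of about 8 µL received 7.5 nL stock; the first replicate is given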
# RanGTP-Imp inh: inhibitors of RanGTP-importin-beta interaction, primary screen, biochemical, FRET, CFP-Ran, YFP-importin-beta, homogeneous; Ran GTPase (GTP-bound) - importin-beta complex; cell-free CFP-Ran/YFP-importin-beta FRET ratio; inhibition, % (no concentration beside the values); 300,000 compounds, 1.1% hits;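 active = most replicates above 15%; inconclusive = exactly half above 15%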;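 also: 0% = DMSO wells and 100% = Ran loaded with GDP instead of GTP; wells of about 40 µL received 100 nL stock; the first replicate is given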
# T cruzi repl: inhibitors of intracellular T. cruzi growth, primary screen, luminescence, NIH3T3 host cells; T. cruzi beta-gal in NIH3T3, 90 h; inhibition, % (no concentration beside the values); 300,000 compounds, 1.4% hits;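 active = mean inhibition across valid replicates above about 55%, limit read from the data; inconclusive = mean below that limit but half or more replicates reach it; inactive = mean below it, under half of replicates reach it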;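 also: signal also drops with host cell toxicity which is not excluded here; 0% = plate median of DMSO wells and 100% = zero luminescence signal; higher percent means less beta-gal luminescence so fewer parasites; stock transfer was 50 nL into about 50 µL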
# A1 inh: caspase 3/7 activation in MEF A1-2A-BIM cells, primary screen, A1 inhibitor project, cell-based, luminescence, HTS. 330,000 compounds, 0.066% hits. Caspase-Glo 3/7 luminescence, 3 h; percent of clofoctol response, vehicle zero. caspase activation, % (test concentration not listed);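 active = over half of replicate activation scores above 10%, or exactly half above 10 with the replicate mean above 10; inconclusive = replicate mean below 10 yet half the replicates above 10; inactive = over half of replicates below 10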;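 also: wells of about 30 µL received 50 nL stock; many hits fall short of the cut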
# rRNA inh HTS: reduced GFP signal of wild-type E. coli, primary screen, bacterial rRNA inhibitor project, GFP/RFP fluorescence, OD600, single point | E. coli WT GFP vs humanized-ribosome RFP mutants, 24 h; active compounds read low; DMSO median 0, no signal -100 | GFP signal change (wild-type ribosome), % (concentration not given with the values) | 350,000 compounds, 1.6% hits;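 active = significant combined selectivity score with lowered wild-type GFP, culture density cut under 30%, mutant RFP and density less affected; inactive = any of these conditions unmet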; also: one replicate is shown; some compounds called inactive have numbers as strong as hits
# Vif A3G: inhibitors of Vif binding to APOBEC3G peptide, primary screen, biochemical, TR-FRET, GST-Vif 1-94, biotin-A3G peptide, dose response retest (AID 1117319). inhibition, %, or IC50 in µM where a hit was titrated. 260,000 compounds, 0.57% hits. Virion infectivity factor (Human immunodeficiency virus type 1 group M subtype B (isolate …. TR-FRET GST-Vif / biotin-A3G peptide binding; higher % means a stronger effect; test concentration not given here; strong numbers were not always called active;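 active = above the screen mean plus three standard deviations and confirmed in dose response; inconclusive = results disagree or hit not tested in dose response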;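 also: Vif residues 1-94 fused to GST binding biotinylated APOBEC3G peptide 110-148; 0% = full assay without inhibitor and 100% = GST in place of GST-Vif; retest series ran down from 100 µM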
# MLL AF4-AF9 inh: inhibitors of AF4 peptide binding to AF9, primary screen, biochemical, AlphaScreen, biotin-AF4 peptide, FLAG-AF9, single point; Protein AF-9 (Homo sapiens), P42568; inhibition, % at 10 µM; 350,000 compounds, 0.47% hits;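 active = every replicate reaching a set inhibition limit, whatever the replicate mean, cut at about 25% in these data; inconclusive = mean inhibition reaches that limit but some replicates miss it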;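 also: 0% = plate neutral control median and 100% = total signal loss; the record names both 10 and 1 µM as test concentration; the first replicate is given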
# Target sequence (P42568 whole entry, looked up): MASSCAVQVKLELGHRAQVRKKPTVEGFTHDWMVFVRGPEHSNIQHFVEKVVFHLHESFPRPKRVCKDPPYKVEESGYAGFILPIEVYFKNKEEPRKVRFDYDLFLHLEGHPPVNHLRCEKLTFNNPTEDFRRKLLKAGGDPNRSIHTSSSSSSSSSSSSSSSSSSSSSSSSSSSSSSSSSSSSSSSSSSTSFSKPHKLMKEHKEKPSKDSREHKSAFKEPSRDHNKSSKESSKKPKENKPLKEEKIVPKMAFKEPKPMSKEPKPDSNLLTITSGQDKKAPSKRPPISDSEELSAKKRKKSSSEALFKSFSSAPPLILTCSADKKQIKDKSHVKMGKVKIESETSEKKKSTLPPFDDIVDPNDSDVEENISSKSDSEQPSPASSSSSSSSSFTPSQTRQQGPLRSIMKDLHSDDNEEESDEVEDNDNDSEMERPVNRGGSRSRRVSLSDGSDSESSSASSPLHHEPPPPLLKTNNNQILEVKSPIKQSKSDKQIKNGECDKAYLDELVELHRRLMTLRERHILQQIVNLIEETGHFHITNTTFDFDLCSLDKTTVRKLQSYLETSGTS
# rRNA inh HTS OD600: recorded beside rRNA inh HTS, whose call it bears; OD600 change, %; measured here: OD600 growth;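 optical density of the mix in the first replicate; 0 = DMSO median and -100 = no signal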
# rRNA inh HTS RFP: recorded beside rRNA inh HTS, whose call it bears; RFP signal change, %; measured here: RFP humanized mutant strains;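 first replicate; 0 = DMSO median and -100 = no signal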
# Numbers without * were called inactive; ? = inconclusive; . = not tested or not shown; & = joins results of further samples. This is a subset (hit frequency here may not be typical).
SMILES,Beta apoptosis,Calb FLC,RanGTP-Imp inh,T cruzi repl,A1 inh,rRNA inh HTS,rRNA inh HTS OD600,rRNA inh HTS RFP,Vif A3G,MLL AF4-AF9 inh
COc1ccc(CCNC(=O)c2ccc(CNc3nc(=S)[nH]c4ccccc34)cc2)cc1OC,3.8,4.0,-1.4,28.6,-1.3,-9.9,-11.6,-3.6,-26.8%,-0.2
COc1cccc(NC(=O)C2CCN(C(=O)[C@@H]3Cc4ccccc4CN3C(=O)OC(C)(C)C)CC2)c1,1.8,2.3,6.2,5.5,0.8,-0.2,9.5,-1.1,.,4.2
COc1ccc(NC2=CC(=O)CC(c3ccccc3)C2)c(OC)c1 (stereo unspecified),.,-5.7,?,-16.2,-0.1,.,.,.,-2.1%,.
CCCCCC(=O)Nc1ccc(-c2csc(C)n2)cc1,-8.1,6.5,2.9,-0.4,-1.6,.,.,.,1.3%,.
C#CCOC(=O)Nc1cccn(Cc2c(Cl)cccc2Cl)c1=O,0.0,-28.9,2.0,-5.7,-0.1,.,.,.,-3.3%,.
CCCc1c(C(=O)N/N=C/c2cccc3ccccc23)nnn1-c1nonc1N,9.0,-0.7,-2.3,3.0,-0.2,4.0,11.6,2.0,3.5%,-4.3
Cn1c(=O)[nH]c(=O)c2c1nc(SCC(=O)Nc1ccccc1)n2Cc1ccccc1,.,-0.3,1.8,16.2,-0.4,3.7,0.0,5.7,-0.3%,-7.3
Cc1ccc(C)c(S(=O)(=O)N2CCCOC2CNC(=O)C(=O)NCCc2ccccc2)c1 (stereo unspecified),-5.0,8.5,1.4,4.9,0.9,3.1,-2.2,-1.4,2.9%,1.9
Cc1ccc(C)c(NC(=O)COc2cccc3c2CCN(Cc2ccccc2)C3=O)c1,6.8,?,-1.3,22.9,-0.3,11.6,15.4,-1.6,.,3.1
CCC(C)c1ccc(C(CC)NC(=O)C2CCCO2)cc1 (stereo unspecified),4.7,-4.9,2.5,11.5,0.0,-3.5,-6.3,1.8,.,0.0
Cc1cc(F)ccc1S(=O)(=O)NCC(c1ccc2c(c1)OCO2)N1CCOCC1 (stereo unspecified),.,-10.5,3.0,-10.7,0.6,3.7,5.3,1.0,.,3.0
Cc1cc(=O)oc2c3c(cc(OCC(=O)NC(C)C)c12)OC(C)(C)CC3,5.1,15.0,-0.7,-2.7,0.1,-23.2,-22.9,-2.2,0.1%,-2.3
CCc1nc2n[nH]c(N)c2c2c1CSC(C)(C)C2,4.7,-0.3,3.9,-13.6,-0.2,.,.,.,30.6%,.
Cn1nnc2cc(C(=O)Nc3ccc(Cl)cc3)ccc21,-1.7,8.3,?,0.2,-0.8,5.8,4.3,-0.9,.,0.8
C=CCOc1c(/C=N\NC(N)=O)cccc1OC,-2.6,-0.2,4.6,.,-0.5,9.0,8.2,-0.1,-0.2%,-2.8
O=C(O)CCCC(=O)Nc1ccc(C(=O)N2CCCCC2)cc1,-4.0,-4.2,4.7,-7.1,0.3,.,.,.,6.6%,.
Cc1c(NC(=O)c2ccc3c(c2)OCO3)cccc1-c1nc2ccccc2s1,9.6,-17.2,-4.5,-7.1,-0.1,.,.,.,-1.8%,.
O=C(Nc1ccc(S(=O)(=O)N2CCCC2)cc1)Nc1ccc(F)cc1F,1.9,-14.2,-2.4,-3.2,-0.9,-14.6,-37.7,-2.7,3.6%,0.5
CN(Cc1cccnc1)Cc1cn(Cc2ccccc2)nc1-c1ccc2c(c1)OCO2,-2.5,-9.8,-1.8,23.0,-0.3,0.1,-17.1,-1.1,.,5.0
Cc1ccc(/C(O)=C2/C(=O)C(=O)N(c3ccccn3)C2c2cccc([N+](=O)[O-])c2)cc1 (stereo unspecified),-1.6,-4.9,-2.3,1.6,-0.8,8.0,-1.2,8.3,1.2%,-0.5
O=[N+]([O-])CC1(n2nc3ccccc3n2)CCCCC1,1.6,-4.2,-0.2,-9.9,1.0,.,.,.,.,.
Cc1c(C(=O)OCc2ccccc2)[nH]c2c1C(=O)CC(c1ccco1)C2 (stereo unspecified),22.6,0.6,?,29.3,0.6,.,.,.,?,.
O=C(NC1CCCCC1)C(c1cc2c(cc1[N+](=O)[O-])OCO2)N1CCCCC1 (stereo unspecified),-3.8,5.7,1.2,13.4,-0.1,.,.,.,8.4%,.
CC1CCc2c(sc3nc(SCC(=O)NCc4ccco4)nc(N)c23)C1 (stereo unspecified),-5.8,-15.8,-0.8,8.6,0.6,.,.,.,-37.9%,.
CCc1nnc(NC(=O)Cc2ccc(OC)c(OC)c2)s1,-4.3,-10.7,3.3,-24.9,-2.3,15.7,14.1,0.0,3.9%,-2.4
O=C(Nc1cccnc1)/C(N=Nc1c(Cl)cccc1Cl)=C(\O)c1ccccc1,12.8,-15.0,2.8,31.0,-0.1,.,.,.,.,.
CC(C)NC(=O)C(=O)NCCCOC(C)C,-2.9,-0.7,3.1,-15.4,-0.2,.,.,.,-9.7%,.
CCn1nc(C)c(/C=N/NC(=O)c2c[nH]c3ccccc23)c1C,0.8,-8.8,?,-4.1,0.8,.,.,.,.,.
CCOc1ccc(-n2ccnc2SCC(=O)N2CCCc3ccccc32)cc1,2.6,-2.8,-0.8,0.0,0.0,.,.,.,.,14.0
COc1cc(/C=C2/N=C(C3CCCCC3)OC2=O)cc(OC)c1OC,-2.3,-3.8,-1.8,-6.7,0.5,.,.,.,-5.1%,.
CSc1cnn(-c2ccccc2)c(=O)c1SC,-2.5,-12.3,1.1,-18.8,0.7,.,.,.,-23.1%,.
N#C/C(=C/c1ccc(F)cc1)C(N)=S,-1.9,-9.5,1.9,-7.8,1.0,15.1,6.3,-2.3,-0.1%,-16.8
O=C(NC(=S)NCc1ccccc1)c1ccccc1F,-2.8,0.9,-3.4,2.5,-1.0,-5.2,-9.8,3.1,0.8%,.
COc1ccc(S(=O)(=O)NCc2cc(-c3ccccc3Cl)no2)cc1,-1.7,-8.2,-1.4,13.4,-0.4,7.1,10.9,1.5,-4.6%,-1.9
Cc1ccc(OCC(=O)n2nc(C)cc2C)c(Br)c1,3.9,-21.1,-0.7,-0.4,-0.2,4.8,3.3,-1.9,6.2%,-1.2
Cc1nc2sc(-c3ccccc3)cc2c(=O)[nH]1,4.8,-6.5,?,-7.9,-7.6,25.4,11.6,10.4,6.3%,-3.4
CCOC(=O)NCc1ccc(S(=O)(=O)Nc2ccc(C)cc2)cc1,-4.6,-3.8,4.8,0.9,0.1,.,.,.,.,.
CC(=O)c1ccc(NC(=O)C(C)OC(=O)C(C)Oc2cccc(C)c2)cc1 (stereo unspecified),-3.9,-0.2,1.4,-3.8,-1.2,5.4,3.0,3.8,68.0%,-2.8
CCn1nc(C)c(CNCc2cn[nH]c2-c2cc3ccccc3o2)c1C,-1.7,4.7,-4.5,-11.0,-0.2,5.9,-4.2,-1.1,-2.7%,1.3
CN(CC(=O)Nc1ccc(F)cc1)C(=O)CSc1ccc2c(c1)OCCO2,-2.3,.,.,.,-0.3,-0.6,-14.0,-0.6,.,2.8
BrC(=C\c1ccccc1)/C=N/N1CCN(c2ccccn2)CC1,-7.6,6.4,4.3,-11.6,-5.6,.,.,.,4.5%,.
C[C@H](CO)N1C[C@H](C)[C@@H](CN(C)Cc2ccc(C(=O)O)cc2)Oc2ccc(NS(C)(=O)=O)cc2C1=O,-0.8,.,.,.,-0.1,-3.6&5.6,-2.7&19.0,6.2&-0.1,.,-2.1&-14.3
O=C(NCc1nnc2c(C(F)(F)F)cc(Cl)cn12)c1cccs1,-1.3,15.5,3.2,6.2,-1.4,0.3,6.8,-2.2,-6.8%,1.2
COc1ccc(Cl)cc1C(=O)NNC(=O)c1cccc([N+](=O)[O-])c1,4.7,4.1,0.9,-4.5,-0.7,16.6,16.1,-0.9,16.0%,-2.3
CC(C(=O)Nc1ccccn1)c1ccccc1 (stereo unspecified),-6.8,-4.2,6.9,-10.1,-1.4,7.9,13.9,-1.8,.,4.4
COc1ccccc1N1CCN(Cc2cc3c(cc2O)OCO3)CC1,-6.1,-5.2,-3.8,-19.3,0.8,3.3,10.2,-0.8,.,13.6
CC(=O)N/N=C/C1=CCC2CC1C2(C)C (stereo unspecified),-5.2,?,1.7,7.2,0.0,17.1,11.0,-5.0,.,-2.2
O=C(Nc1ccc(F)cc1)C1CC(=O)N(Cc2ccco2)C1 (stereo unspecified),-6.4,24.8,-0.6,4.8,0.7,4.6,6.3,1.8,-3.8%,1.6
COc1ccc(-c2cc(C(=O)OCC(=O)N(C)C3CCS(=O)(=O)C3)c3ccccc3n2)cc1OC (stereo unspecified),1.3,6.0,-3.0,-4.7,-0.6,-28.1,-32.4,-6.3,-7.6%,-4.2
COc1cc(Cl)c(C)cc1NC(=O)c1ccc2c(SCC(=O)O)c3c(nc2c1)CCCC3,-3.4,?,8.1,12.1,1.0,-30.5,-60.2,1.5,3.1%,1.0
CCOC(=O)c1[nH]cnc1C(=O)Nc1ccccn1,-3.6,4.2,4.4,15.7,0.3,.,.,.,5.1%,.
Cc1cc(C(=O)CSc2ccccc2)cc(C)c1O,4.9,-17.6,-3.0,-18.9,-1.5,-52.2,-71.8,-12.9,0.6%,-4.7
Cc1cccc(NC(=O)c2c(C)nn(-c3ccccc3)c2Cl)c1,6.8,-16.0,-3.9,0.7,-4.2,-35.5*,2.6*,-5.6*,1.8%,-3.2
COc1ccccc1NS(=O)(=O)c1cccc(NC(=O)NC2CCCCC2)c1,4.9,-1.8,0.2,-5.2,-0.9,.,.,.,.,.
Cc1cc(C)cc(NC(=O)C(=O)NCC2CCCN2S(=O)(=O)c2cccs2)c1 (stereo unspecified),2.8,8.3,-0.6,18.5,1.1,-8.7,-5.4,7.3,-1.7%,?
CS(=O)(=O)c1nc(S(=O)(=O)c2ccc(Cl)cc2)c(NCCCn2ccnc2)s1,-2.8,0.5,2.6,45.9,-0.7,6.7,-3.1,0.1,.,1.0
O=C(CN1CCN(S(=O)(=O)c2ccc(Cl)s2)CC1)N1CCCCC1,-6.8,.,.,.,-0.1,5.0,6.6,-1.0,.,-3.5
Cc1c(OCC(=O)NCc2cccnc2)ccc2c3c(c(=O)oc12)CCCC3,.,-6.3,1.0,13.7,0.5,0.7,7.1,-1.6,.,-1.0

# Screening data deposited in PubChem BioAssay by several laboratories.
